High-throughput results: PubChem, Broad Institute
DUX4 inh: inhibitors of DUX4-driven ZSCAN4 reporter expression, primary screen, 293T cells, Gaussia and Italica luciferase; actives 0.8% (n = 37,000); 293T-iDUX4 ZSCAN4-Gaussia luciferase reporter, 24 h; stronger effect = lower value; activity change, negative = inhibition, % (concentration not given with the values);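 active = -10% or lower and over 25 points stronger than a control reporter; inconclusive = -10% or lower with a smaller gap; inactive = above -10%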;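 note: 0% = median of neutral control wells and -100% = median of positive control wells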
DUX4 inh difference: second read-out of DUX4 inh, no call of its own (marks repeat the call); Gaussia minus Italica difference, %; measured here: selective DUX4 reporter inhibition;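 worked out from the two reporters; negative = selective loss of the DUX4 reporter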
DUX4 inh control: recorded beside DUX4 inh, whose call it bears; activity change, negative = inhibition, %; measured here: Italica tet-on control reporter;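 0 = neutral control and -100 = positive control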
Starred values were filed as active, the others as inactive; u = inconclusive; x = not tested or not shown. The list is partial; rates above refer to the full screens.

DUX4 inh | DUX4 inh difference | Molecule | DUX4 inh control
3.1 | 1.9 | CCS(=O)(=O)Nc1ccc2c(c1)C(=O)N(C)[C@H]1CC[C@@H](CC(=O)N[C@H]3CCN(Cc4ccccc4)C3)O[C@@H]1CO2 | 1.2
10.3 | 9.3 | CCC(=O)N1[C@H](CO)[C@@H](c2ccccc2)C12CN(CCC(F)(F)F)C2 | 1.0
u | x | CCCN1[C@H](C(=O)NCC)[C@@H](CO)[C@@H]2Cn3c(ccc(/C=C/c4ccccc4)c3=O)[C@@H]21 | x
-1.7 | -3.3 | COc1cccc(NC(=O)N[C@@H]2CC[C@@H](CC(=O)N3CCN(C)CC3)O[C@@H]2CO)c1 | 1.6
7.3 | 14.0 | COc1ccc2c3c([nH]c2c1)[C@H](CO)N(C(=O)NC(C)C)CC31CN(C(=O)NC2CCCC2)C1 | -6.7
1.4 | -1.7 | CO[C@H](CN(C)C(=O)c1cnccn1)[C@H](C)CN([C@@H](C)CO)S(=O)(=O)c1ccc(Cl)cc1 | 3.1
0.8 | 2.3 | COc1cccc(NC(=O)C[C@@H]2CC[C@@H]3[C@@H](COc4ccc(NS(=O)(=O)c5cccc(F)c5)cc4C(=O)N3C)O2)c1 | -1.5
4.2 | 5.5 | CCCC#Cc1ccc([C@@H]2[C@H]3CN(C(=O)c4ccccn4)CC(=O)N3[C@H]2CO)cc1 | -1.2
-1.2 | -2.4 | C[C@H](CO)N1C[C@H](C)[C@H](CN(C)CC2CC2)Oc2ncc(-c3cccc(C(=O)N(C)C)c3)cc2C1=O | 1.2
12.3 | -0.7 | C[C@@H]1CN([C@@H](C)CO)C(=O)c2ccccc2-c2ccccc2CO[C@@H]1CN(C)Cc1ccc(C(F)(F)F)cc1 | 13.0
-7.7 | 9.8 | O=C(C[C@H]1C[C@H]2c3cc(NS(=O)(=O)c4ccc(F)cc4)ccc3O[C@H]2[C@@H](CO)O1)NCc1ccc(Cl)cc1 | -17.6
12.7 | 6.6 | O=C(Cc1ccccn1)N1CC(=O)N2[C@H](CO)[C@H](c3ccc(C#CC4CC4)cc3)[C@H]2C1 | 6.2
3.5 | 4.2 | O=C(CCN1CCCCC1)NCC[C@@H]1CC[C@@H](NC(=O)Cc2cccnc2)[C@@H](CO)O1 | -0.7
1.4 | -1.4 | CC(C)NC(=O)Nc1ccc2c(c1)C(=O)N([C@@H](C)CO)C[C@@H](C)[C@H](CN(C)C(=O)C1CCCCC1)OCCCC[C@H](C)O2 | 2.8
-4.0 | -1.5 | O=C(C1CCOCC1)N1CC2(C1)[C@H](c1ccccc1)[C@H](CO)N2Cc1ccc(Cl)cc1 | -2.5
1.3 | 1.7 | CN1CCN(C(=O)C[C@H]2CC[C@H]3[C@@H](COC[C@@H](O)CN3C(=O)C3CCCC3)O2)CC1 | -0.4
-2.6 | 0.2 | C/C=C/c1cccc(-c2nc(C(=O)N3CCN(C)CC3)cc3c2[C@H](CCO)N(C(=O)NC(C)C)C3)c1 | -2.8
0.4 | 3.8 | C[C@@H]1CN([C@H](C)CO)C(=O)c2cccc(NC(=O)c3nc4ccccc4s3)c2O[C@@H]1CN(C)Cc1ccc(C(F)(F)F)cc1 | -3.4
-5.8 | -9.2 | C[C@@H]1CC(=O)NCC/C=C\C[C@H](c2cccc(Cl)c2)NC1=O | 3.4
1.6 | 3.9 | CO[C@@H]1CC[C@H]2CCN(C)C(=O)[C@@H](C)[C@H](OC)CN(C)C(=O)c3cccc(C#N)c3OC[C@@H]1O2 | -2.2

Copied from above (six entries):
DUX4 inh | DUX4 inh difference | Molecule | DUX4 inh control
-4.0 | -1.5 | O=C(C1CCOCC1)N1CC2(C1)[C@H](c1ccccc1)[C@H](CO)N2Cc1ccc(Cl)cc1 | -2.5
1.3 | 1.7 | CN1CCN(C(=O)C[C@H]2CC[C@H]3[C@@H](COC[C@@H](O)CN3C(=O)C3CCCC3)O2)CC1 | -0.4
-2.6 | 0.2 | C/C=C/c1cccc(-c2nc(C(=O)N3CCN(C)CC3)cc3c2[C@H](CCO)N(C(=O)NC(C)C)C3)c1 | -2.8
0.4 | 3.8 | C[C@@H]1CN([C@H](C)CO)C(=O)c2cccc(NC(=O)c3nc4ccccc4s3)c2O[C@@H]1CN(C)Cc1ccc(C(F)(F)F)cc1 | -3.4
-5.8 | -9.2 | C[C@@H]1CC(=O)NCC/C=C\C[C@H](c2cccc(Cl)c2)NC1=O | 3.4
1.6 | 3.9 | CO[C@@H]1CC[C@H]2CCN(C)C(=O)[C@@H](C)[C@H](OC)CN(C)C(=O)c3cccc(C#N)c3OC[C@@H]1O2 | -2.2

Later entries
DUX4 inh | DUX4 inh difference | Molecule | DUX4 inh control
-0.7 | -3.2 | CO[C@H](CN(C)S(=O)(=O)c1cccc(Cl)c1)[C@H](C)CN(C(=O)Nc1ccccc1F)[C@H](C)CO | 2.5
20.4 | 12.1 | COc1ccc2c3c([nH]c2c1)[C@@H](CO)N(C(=O)C1CC1)CC31CN(C)C1 | 8.4
u | x | COc1cccc(S(=O)(=O)N2CCCCN3[C@H](CO)[C@@H](c4ccc(-c5cccnc5)cc4)[C@@H]3C2)c1 | x
0.7 | 2.9 | C[C@H](CO)N1C[C@H](C)[C@@H](CN(C)C(=O)Nc2cccc(F)c2)Oc2ncc(C#CCN(C)C)cc2C1=O | -2.3
-7.7 | -6.1 | CC=Cc1ccc2n(c1=O)C[C@@H]1[C@@H](CO)[C@H](C(=O)NCC3CC3)[C@H]2N1Cc1ccccc1F (mixture of isomers) | -1.6
u | x | CN(C)C(=O)c1cccc(-c2ccc3c(c2)[C@@H]2[C@@H](CCN2C(=O)c2ccncc2)[C@@H](CO)N3C)c1 | x
-1.8 | -5.4 | C[C@@H]1CCCCO[C@@H](CN(C)C(=O)Nc2ccc(F)cc2)[C@H](C)CN([C@H](C)CO)C(=O)c2cc(NC(=O)NC3CCCCC3)ccc2O1 | 3.6
2.1 | 1.8 | CC(C)NC(=O)N(C)C[C@H]1Oc2c(NS(=O)(=O)c3cccs3)cccc2C(=O)N([C@@H](C)CO)C[C@@H]1C | 0.3
-4.3 | -2.3 | C[C@@H]1CN([C@H](C)CO)C(=O)c2cccc(NC(=O)c3cnccn3)c2O[C@H]1CN(C)C(=O)Nc1ccc2c(c1)OCO2 | -2.0
2.1 | 1.3 | CNC[C@H]1Oc2cc(Br)ccc2S(=O)(=O)N([C@H](C)CO)C[C@@H]1C | 0.8
3.1 | 4.5 | O=C(C[C@@H]1CC[C@H]2[C@@H](COC[C@H](O)CN2Cc2ccccc2)O1)NCc1ccccc1Cl | -1.4
-0.4 | 1.1 | O=C(CN1CCOCC1)NCC[C@H]1CC[C@@H](NS(=O)(=O)c2ccc(Cl)cc2)[C@H](CO)O1 | -1.5
10.0 | 12.6 | C[C@H](CO)N1C[C@H](C)[C@@H](CN(C)S(=O)(=O)c2ccc(C#N)cc2)OCc2ccccc2-c2ccccc2C1=O | -2.6
2.6 | 0.0 | O=C(C[C@H]1C=C[C@@H](NC(=O)C2CCOCC2)[C@H](CO)O1)Nc1ccc(-c2ccccc2)cc1 | 2.6
u | x | O=C(C[C@@H]1CC[C@H]2[C@@H](COC[C@@H](O)CN2CCC(F)(F)F)O1)N1CCC(Cc2ccccc2)CC1 | x
-4.0 | -11.0 | C/C=C/c1ccc([C@H]2[C@@H](CO)N(Cc3cncnc3)C23CN(C(=O)CC2CC2)C3)cc1 | 7.0
2.9 | 1.4 | COCC(=O)N1C[C@@H]2[C@H](c3ccccc31)[C@@H](CO)N2C(=O)c1ccccc1F | 1.5
-5.4 | -12.6 | CCCNC(=O)Nc1ccc2c(c1)OC[C@@H](C)N(Cc1cncnc1)C[C@H](C)[C@@H](OC)CN(C)C2=O | 7.1
4.9 | 6.0 | FC(F)(F)c1cccc(CN2[C@@H]3CNC[C@H]2C3c2ccc(-c3ccncc3)cc2)c1 (some centres not stated) | -1.1
7.3 | 4.0 | C/C=C/c1ccc([C@H]2[C@H]3CN(C(=O)Nc4cccc(OC)c4)CC(=O)N3[C@H]2CO)cc1 | 3.4
-1.0 | -1.2 | CCCN1C[C@@H](C)[C@H](OC)CN(C)C(=O)c2cc(NC(=O)c3ccccc3F)ccc2OC[C@@H]1C | 0.2
-1.8 | -3.6 | Cc1ccc(S(=O)(=O)Nc2ccc3c(c2)CC(=O)N([C@@H](C)CO)C[C@@H](C)[C@@H](CN(C)C(=O)Nc2ccc4c(c2)OCO4)O3)cc1 | 1.8
-3.0 | -1.4 | CO[C@H]1CN(C)C(=O)c2ccc(NC(=O)CC(F)(F)F)cc2OC[C@@H](C)N(C(=O)c2ccccc2F)C[C@H]1C | -1.6
-0.1 | 3.8 | Cc1cccc(-c2ccccc2[C@@H]2[C@H](C#N)N(c3ncc(-c4ccccc4)s3)[C@H]2CO)c1 | -3.9
4.6 | 7.4 | O=C(N[C@@H]1C=C[C@@H](CC(=O)N2CCc3ccccc3C2)O[C@@H]1CO)C1CCC1 | -2.8
-1.6 | -8.1 | O=C(c1ccccc1)N1CC[C@H]2[C@H](CO)Nc3ccc(-c4ccc(F)cc4)cc3[C@H]21 | 6.4
5.9 | 3.9 | C/C=C/c1cnc2c(c1)C(=O)N([C@H](C)CO)C[C@H](C)[C@H](CN(C)C(=O)NC1CCCC1)O2 | 2.0
1.4 | 3.6 | CN(C)C(=O)C[C@@H]1CC[C@@H]2[C@H](COC[C@H](O)CN2S(=O)(=O)c2ccccc2Cl)O1 | -2.2
-3.0 | -1.8 | C[C@@H]1CN([C@H](C)CO)S(=O)(=O)c2ccc(C#CC3CCCC3)cc2O[C@@H]1CN(C)C(=O)Cc1ccccc1 | -1.2
u | x | O=S(=O)(c1cccs1)N1CCCCN2[C@H](CO)[C@H](c3ccc(/C=C/c4ccccc4)cc3)[C@H]2C1 | x
-19.1* | -28.8* | Cc1ccccc1S(=O)(=O)N1CCCCN2[C@H](C1)[C@H](c1ccc(-c3cccc(F)c3)cc1)[C@@H]2CO | 9.7*
2.0 | -3.5 | CCC(=O)N1C[C@@H]2[C@H](c3ccccc31)[C@@H](CO)N2C(=O)Nc1ccccc1 | 5.5
-2.4 | -9.8 | CC(=O)Nc1ccc2c(c1)C(=O)N(C)[C@H]1CC[C@H](CC(=O)Nc3cccc(C(C)C)c3)O[C@@H]1CO2 | 7.4
0.8 | -1.5 | COCC#Cc1ccc2c(c1)O[C@H](CN(C)C(=O)C1CCOCC1)[C@@H](C)CN([C@H](C)CO)S2(=O)=O | 2.3
u | x | CN(C)C(=O)c1cccc(-c2ccc3c(c2)[C@H]2[C@H](CCN2C(=O)C2CCOCC2)[C@H](CO)N3)c1 | x
17.9 | 9.5 | COCC(=O)N1CC2(C1)CN(C(=O)CN1CCOCC1)[C@H](CO)c1c2c2ccc(OC)cc2n1C | 8.4
3.6 | 4.1 | C[C@H]1CN([C@@H](C)CO)C(=O)c2c(c3ccccc3n2C)-c2ccccc2CO[C@H]1CN(C)Cc1ccc2c(c1)OCO2 | -0.4
u | x | COCC(=O)N1CC[C@H]2[C@H](CO)Nc3ccc(-c4cccc(C(=O)N(C)C)c4)cc3[C@H]21 | x
u | x | O=C(NC1CCCC1)[C@@H]1[C@@H](CO)[C@@H]2Cn3c(ccc(-c4ccncc4)c3=O)[C@@H]2N1CCc1ccccc1 | x
u | x | Cc1cccc(S(=O)(=O)N2CC[C@@H]3[C@H](CO)Nc4ccc(C#Cc5cccnc5)cc4[C@@H]32)c1 | x
0.8 | -0.4 | C[C@@H]1CN([C@@H](C)CO)C(=O)c2cc(NS(=O)(=O)c3cn(C)cn3)ccc2O[C@@H](C)CCCCO[C@@H]1CN(C)C(=O)c1ccncc1 | 1.2
3.2 | 0.2 | CO[C@H](CN(C)Cc1ccc2c(c1)OCO2)[C@H](C)CN(C(=O)Nc1ccc(F)cc1)[C@@H](C)CO | 3.0
-0.2 | -3.3 | CCN1[C@@H]2c3ccc(-c4ccccc4OC)c(=O)n3C[C@@H]2[C@@H](CO)[C@@H]1C(=O)NCc1ccc(F)cc1 | 3.0
4.4 | 9.2 | O=C(Nc1ccccc1)N1CC(=O)N2[C@H](C1)[C@H](c1ccc(-c3ccc(F)cc3)cc1)[C@@H]2CO | -4.7
4.3 | 6.8 | O=C(C[C@H]1CC[C@@H]2[C@H](COC[C@@H](O)CN2Cc2ccccc2)O1)NCc1ccccc1Cl | -2.5
u | x | COc1ccc(S(=O)(=O)N2C[C@@H](O)COC[C@H]3O[C@H](CC(=O)NCc4ccc(Cl)c(Cl)c4)CC[C@@H]32)cc1 | x
-1.8 | 0.5 | CCC(=O)Nc1ccc2c(c1)C(=O)N(C)C[C@@H](OC)[C@@H](C)CN(CC1CCOCC1)[C@H](C)CO2 | -2.3
-3.4 | -3.4 | CN(C)CC(=O)N1[C@@H]2Cn3c(ccc(-c4ccccc4)c3=O)[C@H]1[C@@H](C(=O)N1CCCCC1)[C@@H]2CO | 0.0
2.3 | -0.5 | N#C[C@@H]1[C@@H](c2ccccc2-c2ccccc2F)[C@H](CO)N1C(=O)c1cccc(F)c1 | 2.9
1.2 | 2.9 | Cc1ccccc1-c1ccc([C@@H]2[C@H]3CN(C(=O)c4cccnc4)CC(=O)N3[C@H]2CO)cc1 | -1.7
-3.9 | -3.6 | C[C@H](CO)N1C[C@H](C)[C@H](CN(C)Cc2ccccc2C(=O)O)Oc2cc(C#CC3CCCC3)ccc2S1(=O)=O | -0.3
u | x | Cc1cccc(-c2ccc([C@H]3[C@H]4CN(S(=O)(=O)c5ccccc5F)CCCCN4[C@H]3CO)cc2)c1 | x
-6.4 | -1.3 | N#C[C@@H]1[C@H](c2ccc(C#CCC3CCCC3)cc2)[C@H](CO)N1C(=O)CN1CCOCC1 | -5.1
2.5 | 3.2 | C[C@H](CO)N1C[C@H](C)[C@@H](CN(C)C(=O)c2ccccc2)OCCCC[C@H](C)Oc2ccc(NC(=O)C3CCCCC3)cc2C1=O | -0.7
